GIV-Gai inh: inhibitors of GIV peptide binding to Galpha-i3, primary screen, biochemical, fluorescence polarization, FITC-GIV GBA peptide, rat Galphai3; 0.42% of 210,000 active; 90 min; hits give low values; scaled: aluminum fluoride 0%, vehicle 100%; percent of control (FP), % (no concentration beside the values);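 active = replicate mean at 85% of control or lower, very high polarization wells dropped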;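 note: wells of about 15 µL received 100 nL stock; the first replicate is given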
Target sequence (P08753 whole entry, looked up): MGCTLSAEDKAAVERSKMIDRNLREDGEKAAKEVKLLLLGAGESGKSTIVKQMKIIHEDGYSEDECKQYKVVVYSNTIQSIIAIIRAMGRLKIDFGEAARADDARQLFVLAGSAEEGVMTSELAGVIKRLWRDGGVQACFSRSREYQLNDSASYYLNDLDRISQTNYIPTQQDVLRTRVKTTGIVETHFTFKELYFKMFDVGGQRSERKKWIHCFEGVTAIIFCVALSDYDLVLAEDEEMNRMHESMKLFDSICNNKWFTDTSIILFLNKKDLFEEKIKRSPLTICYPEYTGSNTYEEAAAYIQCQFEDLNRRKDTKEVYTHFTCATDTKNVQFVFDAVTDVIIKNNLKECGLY
Starred values were filed as active, the others as inactive; & = joins results of further samples. Not all compounds are listed (hit frequency here may not be typical).

`O=C(c1nnc(-c2csc(S(=O)(=O)N3CCCCC3)c2)o1)N1CCCC1` gave GIV-Gai inh 100.6.
`CC(C)CCCC(C)C1CCC2C3CC=C4CC(OC(=O)OCc5ccccc5)CCC4(C)C3CCC12C` (centres undefined) gave GIV-Gai inh 112.6.
`COc1ccc(OC)c(NC(=O)c2c(NCc3ccc(OC)c(OC)c3OC)sc3c2CCCCC3)c1` gave GIV-Gai inh 98.5.
CCOC(=O)C1C(=O)NC(SCC(=O)Nc2ccc(CC)cc2)=C(C#N)C1c1ccccc1Cl (centres undefined) was read as GIV-Gai inh 109.3.
`CC(=O)Nc1c(C)nn(-c2ccccc2)c1N1CCC(C(=O)NCc2cccnc2)CC1` gave GIV-Gai inh 104.6.
`O=C(c1cccc(N2C(=O)C3C4C=CC(C4)C3C2=O)c1)N1CC=C(c2ccccc2)CC1` (centres undefined) gave GIV-Gai inh 105.0.
For CCc1onc(C)c1C1CCCN1Cc1cn(C)c2ccc(OC)cc12 (centres undefined) the results were GIV-Gai inh 105.3.
Screening CCc1ccc(S(=O)(=O)Nc2cc3c(C(=O)OC)c(COC)oc3c3ccccc23)cc1 returned GIV-Gai inh 107.3.
CN(C)CC(=O)N1c2ccccc2CCc2ccc(NC(N)=O)cc21 was read as GIV-Gai inh 102.5&96.7.
Screening COc1ccc(C(=O)NC(c2ccc([N+](=O)[O-])cc2)c2cc(Cl)c3cccnc3c2O)cc1 (centres undefined) returned GIV-Gai inh 107.3.
CCCCOc1ccc(C(=O)Oc2ccc(C(C)(C)C)cc2)cc1 was read as GIV-Gai inh 104.4.
`O=C(Nc1ccccc1F)c1ccc(N2CC3CC(C2)c2cccc(=O)n2C3)c(NC(=O)c2ccc(Br)o2)c1` (centres undefined) gave GIV-Gai inh 107.3.
For O=S(=O)(c1cccs1)N1CCC2(CC1)NCCN=C2NCc1cc(F)cc(F)c1 the results were GIV-Gai inh 102.9.
`Cc1nc(-c2ccc(Cl)c(S(=O)(=O)N3CCCC(C(=O)N4CCCC4)C3)c2)no1` (centres undefined) gave GIV-Gai inh 100.3.
COc1cc(C2=N/C(=C\c3ccc(OC)c(OC)c3OC)C(=O)O2)cc(OC)c1OC was read as GIV-Gai inh 100.3.
Screening CCCS(=O)(=O)c1nc2ccc(NS(=O)(=O)Cc3ccc(Cl)cc3)cc2s1 returned GIV-Gai inh 104.2.
Cc1ccc(-c2csc(NC(=O)CCc3nc(CSc4nc5cc(C)ccc5o4)no3)n2)cc1 was read as GIV-Gai inh 102.0.
For CC1CC(C)CN(C(=O)c2ccc(N3CC4CC(C3)c3cccc(=O)n3C4)c(NC(=O)c3cc4ccccc4oc3=O)c2)C1 (centres undefined) the results were GIV-Gai inh 109.8.
O=C1C2=C(C(c3ccc(Cl)cc3)=NCCN2)C(c2ccccc2)N1c1ccccc1 (centres undefined) was read as GIV-Gai inh 114.1.
For Cc1cc(SCC(=O)N2CCc3ccccc32)nc2ccc(S(=O)(=O)N(C)C)cc12 the results were GIV-Gai inh 96.4.

A section from further up, for reference:
`Cc1nc(-c2ccc(Cl)c(S(=O)(=O)N3CCCC(C(=O)N4CCCC4)C3)c2)no1` (centres undefined) gave GIV-Gai inh 100.3.
COc1cc(C2=N/C(=C\c3ccc(OC)c(OC)c3OC)C(=O)O2)cc(OC)c1OC was read as GIV-Gai inh 100.3.

Returning to the listing; the six compounds before the break are reprinted first.
COc1cc(C2=N/C(=C\c3ccc(OC)c(OC)c3OC)C(=O)O2)cc(OC)c1OC was read as GIV-Gai inh 100.3.
Screening CCCS(=O)(=O)c1nc2ccc(NS(=O)(=O)Cc3ccc(Cl)cc3)cc2s1 returned GIV-Gai inh 104.2.
Cc1ccc(-c2csc(NC(=O)CCc3nc(CSc4nc5cc(C)ccc5o4)no3)n2)cc1 was read as GIV-Gai inh 102.0.
For CC1CC(C)CN(C(=O)c2ccc(N3CC4CC(C3)c3cccc(=O)n3C4)c(NC(=O)c3cc4ccccc4oc3=O)c2)C1 (centres undefined) the results were GIV-Gai inh 109.8.
O=C1C2=C(C(c3ccc(Cl)cc3)=NCCN2)C(c2ccccc2)N1c1ccccc1 (centres undefined) was read as GIV-Gai inh 114.1.
For Cc1cc(SCC(=O)N2CCc3ccccc32)nc2ccc(S(=O)(=O)N(C)C)cc12 the results were GIV-Gai inh 96.4.
`NC(=O)c1oc2ccccc2c1N` gave GIV-Gai inh 104.6.
Screening Cc1ccc(S(=O)(=O)N2CCC3(CC2)NCCN=C3NCc2ccccc2C)cc1 returned GIV-Gai inh 102.8.
`O=S(=O)(c1cc(-c2nnc(C3CC3)o2)cs1)N1CCOCC1` gave GIV-Gai inh 103.5.
COc1ccc(-c2noc(-c3nn(-c4cccc(F)c4)ccc3=O)n2)cc1 was read as GIV-Gai inh 101.7.
Screening Cc1cc2c(cc1[N+](=O)[O-])-c1ncccc1C2 returned GIV-Gai inh 107.6.
For c1ccc(CN2C3=NCCN3c3ccccc32)cc1 the results were GIV-Gai inh 100.9.
Cc1csc(-c2cc(S(=O)(=O)N3CCOCC3)c(C)n2C)n1 was read as GIV-Gai inh 108.3.
For COc1ccc(C2C(C#N)=C(N)N(c3ccc(OC)cc3OC)C3=C2C(=O)CC(C)(C)C3)cc1 (centres undefined) the results were GIV-Gai inh 110.7.
`O=C(Nc1cnn(-c2ncncc2N2CCSCC2)c1)C1CCC1` gave GIV-Gai inh 103.0.
`Cc1ccc(S(=O)(=O)N2CCC3(CC2)NCCN=C3NCc2ccc(F)cc2)cc1C` gave GIV-Gai inh 105.1.
`O=C(Nc1cccc(Br)c1)c1nc(N2CCCCC2)c2oc3ccccc3c2n1` gave GIV-Gai inh 102.5.
Screening Cc1nc(-c2ccc(C)c(S(=O)(=O)NCC(=O)Nc3cccc(Cl)c3)c2)no1 returned GIV-Gai inh 100.0.
Cc1ccc(N2CCN(c3ccc(C)cc3)C2c2cccc(Cl)c2Cl)cc1 was read as GIV-Gai inh 104.0.
For CCC(=O)Nc1ccc2nc(SCc3cc([N+](=O)[O-])ccc3OC)sc2c1 the results were GIV-Gai inh 106.8.
`COc1ccc(-c2nc(=Nc3ccccc3)sn2-c2ccccc2)cc1` gave GIV-Gai inh 99.9.
O=C(Nc1ccc2c(c1)OCO2)c1ccc(=O)n(Cc2ccc(Cl)cc2)c1 was read as GIV-Gai inh 107.1.
For Cc1ccc(-c2ccc(-n3nc(C)c(S(=O)(=O)Nc4ccc(F)cc4)c3C)nn2)cc1 the results were GIV-Gai inh 102.9.
Screening COc1ccccc1C=Nc1c(C)n(C)n(-c2ccccc2)c1=O returned GIV-Gai inh 111.8.
O=C1CN(Cc2ccccc2Cl)S(=O)(=O)c2ccccc2N1Cc1ccccc1F was read as GIV-Gai inh 109.2.
Cc1cccc(NC2=NC(=S)N(c3ccc(I)cc3)C23CCCCC3)c1 was read as GIV-Gai inh 103.7.

Retrieved one by one from the list above (3):
Cc1cccc(NC2=NC(=S)N(c3ccc(I)cc3)C23CCCCC3)c1 was read as GIV-Gai inh 103.7.
`NC(=O)c1oc2ccccc2c1N` gave GIV-Gai inh 104.6.
Screening COc1ccccc1C=Nc1c(C)n(C)n(-c2ccccc2)c1=O returned GIV-Gai inh 111.8.

Additional compounds:
`COc1ccc(C(=O)N2c3cc(Cl)ccc3-c3c(ssc3=S)C2(C)C)cc1` gave GIV-Gai inh 109.2.
For CCC(=O)N1CCc2cc(N3CC(C(=O)NCC(C)C)CC3=O)ccc21 (centres undefined) the results were GIV-Gai inh 101.7.
For CCC(C)NS(=O)(=O)c1cc(-c2nc(C)cs2)n(CC(=O)N2CCCCC2)c1 (centres undefined) the results were GIV-Gai inh 104.0.
Screening CN(C)c1nc2ncn3c(=O)n(CC(=O)NC4CCCC4)nc3c2s1 returned GIV-Gai inh 100.7.
Screening CCOC(=O)c1sc2ncnc(N3CCCC(C(=O)OCC)C3)c2c1C (centres undefined) returned GIV-Gai inh 107.3.
For CCNC(=O)c1n[nH]c2c1CCCCCC2 the results were GIV-Gai inh 101.0.
`CCc1ccc(NC(=O)Cn2ncn3c(C)c(C(=O)NCc4ccccc4)c(C)c3c2=O)cc1` gave GIV-Gai inh 102.2.
Cc1cc(-n2c(SCC(=O)Nc3ccc4c(c3)OCCO4)nc3n[nH]c(C)c3c2=N)ccc1Cl was read as GIV-Gai inh 106.6.
Cc1oc(C2CCN(C(=O)Cc3cccs3)CC2)nc1C(=O)N1CCSCC1 was read as GIV-Gai inh 100.5.
`CN1C=C(c2ccc3ccccc3n2)Cc2ccccc21` gave GIV-Gai inh 115.9.
Screening CCN1CCN(CCNC(=O)CS(=O)Cc2cnn(-c3ccccc3)c2-n2cccc2)CC1 (centres undefined) returned GIV-Gai inh 99.0.
`Cc1cc(-n2c(SCc3cc(=O)n4cc(Br)ccc4n3)nc3n[nH]c(C)c3c2=N)ccc1Cl` gave GIV-Gai inh 111.3.
CC(=O)Oc1cc2c(cc1Cl)C1(CC(c3ccccc3)O2)CC(C)(C)NC(=S)N1 (centres undefined) was read as GIV-Gai inh 98.2.
`COc1ccc(-c2nnc(SCC(=O)Nc3ccc(C)cc3)nc2-c2ccc(OC)cc2)cc1` gave GIV-Gai inh 90.8.
CCOC(=O)C1=C(C)NC2=C(C(=O)c3ccccc32)C1c1cccc(OC)c1 (centres undefined) was read as GIV-Gai inh 113.3.
Oc1ccc(Br)c(C2Nc3ccc(F)cc3[C@H]3OCC[C@@H]23)c1 (some centres undefined) was read as GIV-Gai inh 99.1.
For Cc1sc(-c2cc(C(F)(F)F)[nH]n2)cc1S(=O)(=O)N1CC=C(c2ccccc2)CC1 the results were GIV-Gai inh 100.5.
Cc1c(Cl)cccc1N1C(=O)CSC12C(=O)Nc1ccccc12 (centres undefined) was read as GIV-Gai inh 120.4.
`Oc1ccc(-c2nc3cnc(Br)cn3c2Nc2ccc3c(c2)OCCO3)cc1` gave GIV-Gai inh 106.7.
For CCCC(C)OC(=O)C1C(C)CC2(C)CC1C(=O)O2 (centres undefined) the results were GIV-Gai inh 109.7.
`C=CCn1c(SCC(=O)Nc2cccc(Cl)c2)nc2sc(CC)cc2c1=O` gave GIV-Gai inh 103.3.
`CCOc1cc(/C=c2\sc3nc4cc(C)c(C)cc4n3c2=O)ccc1OCC(N)=O` gave GIV-Gai inh 109.0.
For CC1=C(C(=O)OC(C)(C)C)C(c2cccc(F)c2)C(C#N)=C(N)O1 (centres undefined) the results were GIV-Gai inh 116.5.
`Cc1noc(C)c1C1CCCN1Cc1cc(F)ccc1F` (centres undefined) gave GIV-Gai inh 100.0.
For CC1CCN(CN2C(=O)C3(OCC(C)(c4ccccc4)CO3)c3ccccc32)CC1 (centres undefined) the results were GIV-Gai inh 99.5.
For CCOC(=O)c1c(S(=O)(=O)N2CCC(C(=O)N3CCN(c4ccccn4)CC3)CC2)c(C)n(C)c1C the results were GIV-Gai inh 104.2.
`Cc1cccc(N2CCN(S(=O)(=O)c3cc(-c4nnc(C5CCC5)o4)co3)CC2)c1C` gave GIV-Gai inh 107.4.
`N#CC1=CN(c2ccc(F)c(Cl)c2)c2cc(F)ccc2S1(=O)=O` gave GIV-Gai inh 105.0.
Screening CCS(=O)(=O)N1CCN(c2ccc(NCc3ccccc3)nn2)CC1 returned GIV-Gai inh 99.0.
Screening Cc1ccc(C(=O)Nc2c(C)nc3scc(C)n3c2=O)cc1 returned GIV-Gai inh 101.6.
Screening CN(c1ccc(Br)cc1)S(=O)(=O)c1ccc2[nH]cc(C(=O)NCCC3=CCCCC3)c(=O)c2c1 returned GIV-Gai inh 100.0.
For CC(=O)N1C(=O)/C(=c2/sc3n(c2=O)C(c2ccccc2)C(c2ccccc2)=NN=3)c2ccccc21 (centres undefined) the results were GIV-Gai inh 103.8.
For COC(=O)C1=C(C(=O)OC)SC(=C2C(=S)C(C)(C)N(C(=O)CCC3CCCCC3)c3ccc(C)cc32)S1 the results were GIV-Gai inh 103.6.
`CCOc1ccc(C2=Nn3c(nnc3C(F)(F)F)SC2)cc1` gave GIV-Gai inh 111.7.
For CC(=O)OC1CCC2(C)C(=CCC3C2CCC2(C)C(C(C)CCCC(C)C)CCC32)C1 (centres undefined) the results were GIV-Gai inh 108.7.
Screening CCCCC(=O)N1C2=C(C(=O)c3ccccc32)C(c2ccccc2)c2c1n(C)c(=O)n(C)c2=O (centres undefined) returned GIV-Gai inh 99.0.
`Cc1ccc(N2C(=O)C3C4c5ccccc5C(CO)(c5ccccc54)C3C2=O)cc1Cl` (centres undefined) gave GIV-Gai inh 109.8.
`O=c1oc2ccc3ccccc3c2cc1-c1csc(Nc2cc(C(F)(F)F)ccc2Cl)n1` gave GIV-Gai inh 106.9.
CCN1CC2=C(OC(N)=C(C#N)C2c2ccccc2C)/C(=C/c2ccccc2C)C1 (centres undefined) was read as GIV-Gai inh 138.9.
`COc1cccc(N2C(=O)/C(=C/c3ccc([N+](=O)[O-])cc3)C=C2c2ccccc2)c1` gave GIV-Gai inh 115.2.
For O=C(O)c1cccc(Nc2nc(N3CCCC3)nc(N3CCCC3)n2)c1 the results were GIV-Gai inh 105.0.
Screening Cc1cc2c(cc1S(=O)(=O)N(C)CC(=O)N1CCOCC1)OC(C)C(=O)N2 (centres undefined) returned GIV-Gai inh 103.0.
Screening CC1(C)CC(=O)C2=C(C1)N(c1ccc(F)cc1)C(N)=C(C#N)C2c1cc(Br)cs1 (centres undefined) returned GIV-Gai inh 110.2.
`Cc1ccc2nc(-c3ccc(NC(=O)c4ccc5c(c4)OCCO5)cc3)sc2c1` gave GIV-Gai inh 106.6.
`CCCNC(=O)C1CCN(Cc2c(C)n(CC)c3ccccc23)CC1` gave GIV-Gai inh 97.7.
`CCc1c(C)nc2ncnn2c1N1CCCC1` gave GIV-Gai inh 104.0.
For O=c1cc(CN2CCSCC2)cc[nH]1 the results were GIV-Gai inh 101.8.
Screening COC(=O)C1=C(C(=O)OC)SC(=C2C(=S)C(C)(C)N(C(=O)c3ccc(F)cc3)c3cc(C)c(C)cc32)S1 returned GIV-Gai inh 106.2.
For Cc1cccc(NNC(=O)C(O)(c2cccc(C)c2)c2cccc(C)c2)c1 the results were GIV-Gai inh 111.2.
`Cc1ccc(-c2noc(C3CC3)n2)cc1S(=O)(=O)NC(C)C(=O)NC1CC1` (centres undefined) gave GIV-Gai inh 110.2.
Screening Cc1ccc(C)c(N(C)S(=O)(=O)c2ccc3[nH]cc(C(=O)N4CCN(Cc5ccccc5)CC4)c(=O)c3c2)c1 returned GIV-Gai inh 108.6.
`CCOC(=O)C1=C(O)/C(=C/c2ccc(O)c(OC)c2)SC1=Nc1cccc(Cl)c1` gave GIV-Gai inh 114.6.

Compound activity from PubChem BioAssay.
